CSC inhib: cancer stem cell viability inhibitors, primary screen, luminescence. 300,000 tested, 1.1% active. cancer stem cell-like cells viability. inhibition, % at 7.5 µM;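 active = mean at 75% or more and at least half the replicates too; inconclusive = mean and replicates disagree; tested in HMLE shEcad cells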;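 also: 0% = median of negative and 100% = median of positive control wells; the first replicate is given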
MT1-MMP act inh: blockers of MT1-MMP proenzyme processing, primary screen, HT1080 RFP-PRO-GFP cells, GFP/RFP fluorescence. GFP/RFP ratio change, % at 20 µM. AID 651647, 2012. GFP/RFP ratio fluorescence, overnight; percent of plate control window, DMSO zero. Matrix metalloproteinase-14 (Homo sapiens), P50281. 360,000 tested, 0.061% active;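 active = GFP/RFP ratio change of at least 30% with cell ATP level not reduced by more than half and red fluorescence within 50% of control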; also: strong numbers were not always called active
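Test system: HT1080 cells expressing an RFP-PRO-GFP fluorescent reporter construct / Compound dosing: single-point 20 µM compound, 1% DMSO / Schedule: cells overnight before dosing, compound overnight, 37 °C, 5% CO2 / Evaluation: GFP/RFP fluorescence ratio / Control set: DMSO and RFP-L50D-GFP cell wells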
UUG fidelity: modulators of yeast start codon fidelity, primary screen, whole organism, S. cerevisiae, single point, plate reader. S. cerevisiae UUG-firefly luciferase reporter, luminescence/redox ratio. activity score, % at 18.7 µM. 350,000 tested, 0.13% active. AID 602363, 2012;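 active = replicate mean at a twofold rise or more, about +100% in these data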;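 also: firefly luciferase made from a UUG start codon reports start codon fidelity; reporter light over untreated wells divided by growth signal over untreated wells; some hits fall short of that in this replicate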
PABP FP inh: PABP poly(A) RNA binding inhibitors, primary screen, biochemical, fluorescence polarization, uHTS; inhibition, % at 35 µM; 290,000 tested, 1% active; AID 2014, 2009; Polyadenylate-binding protein 1 (Homo sapiens), P11940;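 active = 50% or more with normal probe brightness, or confirmed in later tests; inconclusive = above 50% with abnormal brightness, or retests that disagree; inactive = below 50% or failed in later tests; about a fifth of its hits are not listed in these tables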;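 also: calls also rest on retests at 20 µM and on dose response follow-up; controls were probe without protein and protein plus probe with vehicle; some compounds called inactive have numbers as strong as hits; many hits fall short of the cut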
Target sequence (P11940 whole entry, looked up): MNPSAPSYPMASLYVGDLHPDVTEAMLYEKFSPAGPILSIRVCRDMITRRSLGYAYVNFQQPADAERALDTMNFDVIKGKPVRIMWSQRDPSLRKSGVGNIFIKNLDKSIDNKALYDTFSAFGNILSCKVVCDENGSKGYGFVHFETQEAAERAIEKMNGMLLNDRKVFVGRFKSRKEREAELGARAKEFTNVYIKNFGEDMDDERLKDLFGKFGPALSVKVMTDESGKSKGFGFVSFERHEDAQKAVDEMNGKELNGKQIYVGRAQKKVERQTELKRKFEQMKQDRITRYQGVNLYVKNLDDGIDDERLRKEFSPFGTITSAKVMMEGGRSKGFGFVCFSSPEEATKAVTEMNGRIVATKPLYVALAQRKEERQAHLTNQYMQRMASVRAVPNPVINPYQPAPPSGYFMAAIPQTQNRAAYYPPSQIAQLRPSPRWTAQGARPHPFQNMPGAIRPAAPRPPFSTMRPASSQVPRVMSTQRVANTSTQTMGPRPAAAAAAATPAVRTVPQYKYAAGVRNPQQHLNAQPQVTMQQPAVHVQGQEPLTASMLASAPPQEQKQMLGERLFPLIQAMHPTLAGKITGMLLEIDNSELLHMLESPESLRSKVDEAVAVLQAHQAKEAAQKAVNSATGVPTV
eIF4H inh: human eIF4H binding inhibitors, primary screen, translation initiation inhibitor project, biochemical, uHTS, fluorescence polarization; Eukaryotic translation initiation factor 4H (Homo sapiens), Q15056; eIF4H fluorescence polarization binding assay; inhibition, % at 35 µM; 290,000 tested, 0.94% active; AID 2012, 2009;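 active = 50% or more with normal probe brightness, or confirmed in later tests; inconclusive = above 50% with abnormal brightness, or retests that disagree; inactive = below 50% or failed in later tests; about a fifth of its hits are not listed in these tables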;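 also: calls also rest on retests at 20 µM and on dose response follow-up; 0% = protein and probe with vehicle and 100% = probe without protein; strong numbers were not always called active; many hits fall short of the cut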
Rce1 inh: yeast Rce1p protease inhibitors, primary screen, biochemical, fluorescence, cell-free homogeneous. yeast membranes, quenched prenylated peptide cleavage fluorescence. calls only. 290,000 tested, 0.27% active;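 active = fall in fluorescence gain of 50% or more versus controls, with final raw signal at or below 3038400; inconclusive = same 50% fall but final raw signal above 3038400; inactive = fall in fluorescence gain under 50%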;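 also: plate controls were neutral control wells for no effect and wells lacking membranes for full effect; tested at 10 µM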
Env fusion inh: inhibitors of HIV-1 Env-driven cell-cell fusion, primary screen, HeLa-JRFL effector, CEM21 target cells, luciferase. inhibition, % at 12.3 µM. 360,000 tested, 1.1% active. AID 651610, 2012;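 active = mean replicate inhibition score of at least 50 and every replicate individually at or above 50; inconclusive = only one of the two criteria met; inactive = mean below 50 and not all replicates reaching 50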;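 also: 0% = plate neutral controls and 100% = maraviroc near 300 nM; one replicate is shown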
MT1-MMP act inh RFP: second read-out of MT1-MMP act inh, no call of its own (marks repeat the call); RFP signal change, %; measured here: RFP expression control read;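 0 = vehicle wells; hits needed this value within 50% of zero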
The depositor's hits bear a star; i = inactive; ? = inconclusive; nt = not tested or not shown; + = active, no number. A portion of the library, so the mix of outcomes need not match the whole.

SMILES	CSC inhib	MT1-MMP act inh	MT1-MMP act inh RFP	UUG fidelity	PABP FP inh	eIF4H inh	Rce1 inh	Env fusion inh
CCOC(=O)c1c(NC(=O)c2c(N)n(CCCOC)c3nc4ccccc4nc23)sc2c1CCCC2	3	-6	2	-13	71*	?	i	nt
COC(=O)c1ccccc1OP1(=O)COc2ccccc2OC1	-9	1	3	-3	1	-9	i	-6
CCOC(=O)C1C(=O)NC23CCCC2C1c1ccccc1O3 (stereo not given)	-10	-1	7	-14	3	1	i	2
CCN(CC)CCN/N=C(\C)c1c(O)[nH]c(=O)[nH]c1=O	-7	2	4	-5	3	-6	i	-5
COCCNC(=O)N1[C@H]2CC[C@@H]1C(C(=O)OC)=C(c1ccc(OC(F)(F)F)cc1)C2	7	6	-3	2	nt	nt	nt	32
CCOc1ccc(-c2cc(C)[n+](CCO)c(-c3ccc(OCC)cc3)c2)cc1	nt	-9	-22	-3	7	-3	i	4
CCOC(=O)c1c(-c2ccccc2)oc2ccc(OC(=O)N(C)C)cc12	-6	-2	-2	-10	-3	-1	i	8
C=CCn1c(=O)c(C=Nc2c(OC)cccc2[N+](=O)[O-])c(O)n(CCCC)c1=O	-5	-77	1	nt	3	1	i	20
COC(=O)C(O)(c1ccc(N(C)C(=O)c2ccc(Cl)c(Cl)c2)cc1)C(F)(F)F (stereo not given)	-6	-3	0	-3	15	-5	i	nt
CCCCN1C(=O)NC(=O)C2(Cc3c(nc4ccccn4c3=O)N3CCc4ccccc4C32)C1=O (stereo not given)	-12	3	0	10	16	-8	i	-177
O=C(Nc1ccc(Br)cc1)c1nn(C23CC4CC(CC(C4)C2)C3)cc1Br	43	-4	-10	-5	-7	-10	i	nt
N#CC12c3ccccc3C(=O)N1Cc1cnnn1-c1ccccc12 (stereo not given)	nt	-2	3	-9	nt	nt	nt	-9
O=C(c1ccc(Cl)cc1)C1CCCN(Cc2ccon2)C1 (stereo not given)	-15	1	2	7	-15	6	i	4
Cc1ccc(C2C(=O)NC(=O)NC2=O)cc1	-3	2	3	-21	nt	nt	i	-5
Cn1cnnc1Sc1cc(N2CCNCC2)ccc1[N+](=O)[O-]	-8	-2	-2	-23	8	2	i	-4
Cn1ccc(NC(=O)CCl)n1	-2	6	1	nt	-8	8	nt	3
CN1CCN(c2ccc(Cl)cc2N)CC1	-1	0	3	nt	-2	-8	i	11
Cc1ccccc1C(=O)N1Cc2ccccc2-n2nncc2C1	nt	1	2	-8	nt	nt	nt	15
CN1CCN(c2ncc(C=O)s2)CC1	-13	-2	2	nt	1	23	i	3
NC(Cc1ccc(F)cc1)c1csc(Nc2ccccn2)n1 (stereo not given)	nt	-2	2	-21	nt	nt	nt	-4
COC(=O)C1=C(c2ccc(OCc3ccccc3)cc2)C[C@@H]2CC[C@H]1N2C	nt	4	5	-18	nt	nt	nt	11
CSc1nc(N2CCN(C)CC2)c2ccccc2n1	-7	-4	2	-8	2	-12	i	5
Cc1nn(Cc2ccccc2)c(C)c1C(=O)O	3	0	1	-21	-5	-7	i	14
COc1ccc(Nc2ncc(C(=O)N3CCC4(CC3)OCCO4)c3ccccc23)cc1	-12	4	4	-8	-2	-13	i	nt
CC(=O)NC1CC2CCC(C1)N2 (stereo not given)	-1	1	-2	-15	-2	-5	i	-28

More entries follow:
SMILES	CSC inhib	MT1-MMP act inh	MT1-MMP act inh RFP	UUG fidelity	PABP FP inh	eIF4H inh	Rce1 inh	Env fusion inh
CCC(C)NC(=O)c1c(N)n(CC2CCCO2)c2nc3ccccc3nc12 (stereo not given)	-10	-2	3	7	12	4	i	19
Cc1ccc(-c2nc3ccccc3c(=O)n2-c2ccncc2)cc1	-3	-2	2	nt	-5	-4	i	-16
CCOC(=O)C1(CCc2ccccc2)CCN(Cc2ccc(NC(C)=O)cc2)CC1	-2	-2	0	-10	-5	-9	i	15
Cn1cccc1/C=C1/C(=O)NC(=S)N(Cc2ccc(F)cc2)C1=O	?	39*	43*	-18	9	41	i	-120
S=C(NCCc1ccccc1)N1Cc2cc(N3CCCCC3)ccc2-n2nncc2C1	nt	-4	-6	-22	nt	nt	nt	75*
COc1ccc(OC(=O)N(C)C)c(CN(C)C)c1	-1	1	1	-9	-11	-8	i	nt
Cc1cc(OC(=O)c2ccco2)c2c3c(c(=O)oc2c1)CCC3	2	5	-12	-9	-2	-7	i	nt
CC(C)c1oc(=O)cc2c1[C@@H](O)[C@H]1OC(=O)[C@@]3(C)C[C@@H](O)[C@@H](O)[C@@]2(C)C13 (stereo not given in full)	43	-43	-33	17	8	-11	i	-257
CC1CCCC(NC(=O)CNC(=S)N2CC3CC(C2)c2cccc(=O)n2C3)C1C (stereo not given)	-8	0	1	-6	nt	nt	i	2
O=C(CN1C2CCC1CC(O)(c1cccnc1)C2)Nc1ccc2c(c1)OCO2 (stereo not given)	nt	2	0	-7	-3	-3	i	nt
Cc1ccc2c(c1)C(c1ccccc1)=NCC(=O)N2C	-7	7	12	nt	nt	nt	i	-7
Cc1nccn1Cc1ccc(Cl)nc1	-10	3	3	-15	?	6	i	1
CCS(=O)(=O)NC(C)c1nnc2n1-c1ccc(Br)cc1C(c1ccccc1Cl)=NC2 (stereo not given)	-9	2	2	-6	nt	nt	i	-1
CCOP(=O)(OCC)C(NC(=O)c1ccc(Cl)cc1)=C(Cl)Cl	6	6	3	nt	8	2	i	nt
Cc1ccc(C(=O)c2cc(Br)ccc2N)cc1	1	0	0	nt	2	2	i	0
CCCCN1C(=O)C(C2c3ccccc3C(=O)N2Cc2ccccc2)C(=O)NC1=S (stereo not given)	1	-1	-3	12	6	5	i	-39
CC(=Nc1ccccc1N)c1c(O)n(C)c(=O)[nH]c1=O	-6	0	5	-16	6	1	nt	-42
C/C(=N\N1CCCCCC1)c1c(O)n(C2CCCCC2)c(=O)[nH]c1=O	40	2	-9	-4	-9	5	i	3
O=C(CN1CCN(CCO)CC1)Nc1ccc(Cl)cc1C(=O)c1ccccc1	2	-3	1	-11	6	-7	i	-14
N#Cc1ccccc1OCC(=O)N1CCN(CC(=O)Nc2ccc(F)cc2)CC1	nt	2	3	-10	nt	nt	nt	-4
CC(=O)CC(C)(C)n1c[n+](C)nn1	-1	2	2	nt	6	46	i	-49
CC(=O)C1C(N2CC2)CC2C3CC=C4CC(O)CCC4(C)C3CCC21C (stereo not given)	nt	3	1	-6	nt	nt	nt	-42
O=c1[nH]c2ccccc2n1C1CCN(C(c2ccccc2OC(F)(F)F)c2nnnn2-c2ccc3c(c2)OCCO3)CC1 (stereo not given)	nt	-25	-15	11	nt	nt	nt	-13
CCN1C[C@]2(CO)CC[C@H](OC)[C@@]34C5C[C@H]6[C@H](OC)C5[C@](O)(C[C@H]6OC)[C@@H](C(OC)C23)[C@@H]14 (stereo not given in full)	-5	-4	0	-9	nt	nt	i	nt
COc1ccc(-n2nnnc2C(C2CC2)N2CCC(n3c(=O)[nH]c4ccccc43)CC2)cc1 (stereo not given)	nt	0	-1	3	nt	nt	nt	-35

Carrying on.
SMILES	CSC inhib	MT1-MMP act inh	MT1-MMP act inh RFP	UUG fidelity	PABP FP inh	eIF4H inh	Rce1 inh	Env fusion inh
CCn1c(O)c(/C=N/NC(=O)c2ccncc2)c(=O)[nH]c1=S	-1	13	21	nt	7	5	i	-5
COc1ccc(C(SCC(NC(=O)OCc2ccccc2)C(=O)O)c2ccc(OC)cc2)cc1 (stereo not given)	nt	6	1	-16	nt	nt	nt	-16
CC1(CCl)CN1S(=O)(=O)c1ccccc1 (stereo not given)	10	4	2	nt	3	-2	i	24
C=C1C(=O)O[C@@H]2C[C@@H](C)[C@@H]3C=CC(=O)[C@@]3(C)[C@@H](OC(=O)CC(=O)O[C@H]3[C@@H]4C(=C)C(=O)O[C@@H]4C[C@@H](C)[C@@H]4C=CC(=O)[C@]43C)[C@H]12	122*	-5	-30	26	2	3	i	109*
O=C(CN1CC=C(c2ccccc2)CC1)Nc1c(Cl)cccc1Cl	10	0	3	nt	-1	8	i	19
Cc1ccc(CCN2CC(C(=O)N3CCC4(CC3)OCCO4)CC2=O)cc1 (stereo not given)	6	-6	-1	nt	2	7	i	nt
O=C1NC(=O)C2(Cc3c(nc4ccccn4c3=O)N3CCCCCC32)C(=O)N1Cc1ccccc1 (stereo not given)	-28	-3	-7	-6	-7	-5	nt	-21
ClC(Cl)=C(c1ccc(Cl)cc1)c1ccc(Cl)cc1	55	1	2	-18	nt	nt	nt	-14
CNC(=O)Oc1cccc2c1OC(C)(C)O2	nt	4	7	-21	nt	nt	nt	-13
c1ccc(Nc2ccc(Nc3ccccc3)cc2)cc1	27	0	5	-11	nt	nt	nt	nt
COc1ccc(C2=NCC(=S)Nc3ccc(Cl)cc32)cc1OC	-3	-3	-4	nt	nt	nt	i	3
COc1ccccc1C1=NCc2nnc(CSC)n2-c2ccc(Cl)cc21	0	-5	-1	nt	nt	nt	i	7
NC(Cc1ccc(F)cc1)c1csc(Nc2cnccn2)n1 (stereo not given)	nt	-5	4	4	nt	nt	nt	-11
COC(=O)C1=C(c2cccc(C#N)c2)C[C@@H]2CC[C@H]1N2C(=O)NCc1cccc2ccccc12	-7	3	-2	4	nt	nt	nt	-54
COc1cc(Cn2c(N)c(C(=O)NCc3ccco3)c3nc4ccccc4nc32)cc(OC)c1OC	-5	6	8	-2	17	2	+	-59
CCOc1ccc(-c2c(C)n(-c3ccc(OCC)cc3)c3[n+]2CCCCC3)cc1	34	-11	-40	nt	-5	1	i	46
CCOC(=O)/C(CCCN(CC)CC)=N\O	-5	-5	-1	4	56*	5	i	nt
CCCCc1nc2ccccc2c(=O)n1-c1ccccc1[N+](=O)[O-]	nt	-2	1	-7	1	-5	i	nt
C=Cn1c(P(=S)(N2CCOCC2)N2CCOCC2)cc2c1CCCC2	16	-9	-4	-23	16	12	i	nt
CNC(=O)OCCc1n(C)cc[n+]1C	-8	-4	4	-8	24	-3	i	8
COP(=S)(OC)Oc1ccc(SC)c(C)c1	nt	5	5	-14	nt	nt	nt	-6
CC(N)Cc1ccccc1Sc1ccc(O)cc1 (stereo not given)	11	nt	nt	nt	-3	2	i	nt
COc1ccc(CCNC(=O)c2c(N)n(CCN3CCOCC3)c3nc4ccccc4nc23)cc1OC	21	-7	-11	5	-13	-13	i	0
COc1cccc(C2(O)CCN(CC(=O)Nc3nc(C)cs3)CC2)c1	15	-5	-1	nt	-5	0	nt	25
Cc1ccsc1-c1nc(CSCC(=O)N2CCC3(CC2)OCCO3)c(C)o1	-8	0	-3	0	0	4	i	-68
CCN(CC)c1ccc(/C=C2\C(=O)NC(=S)N(c3ccc(OC)cc3OC)C2=O)o1	0	-104	11	34	nt	nt	i	nt
CC(C)c1cccc(C(C)C)c1O	-8	2	6	7	nt	nt	i	14
O=C(Nc1ccc(OC(=O)N2CCCC2)cc1)N1CCOCC1	31	5	1	-12	-12	6	i	nt
COc1ccccc1CN1CCN(C(=O)COc2cccc(C)c2)CC1	2	5	5	-8	8	12	i	nt

Assay outcomes: PubChem BioAssay, several laboratories
